Bioassay records: PubChem BioAssay, National Center for Advancing Translational Sciences (NCATS)
CtBP-E1A inh: qHTS Assay for Inhibitors of the CtBP/E1A Interaction; activity change, % (no concentration beside the values); 340,000 tested, 0.49% active; AlphaScreen GST-E1A/His-CtBP binding, 1536-well; stronger effect = lower value; control for the full effect not named in the record; CtBP / adenovirus E1A interaction (AlphaScreen); AID 651724, 2012; in the data active means activity change below about -65%; inconclusive means about -30% to -65%; inactive means above about -30%; also: % is scaled to controls: 0 for no effect and ±100 for the full control effect; compound concentration not given in the record
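GST-E1A and His-tagged CtBP (125 nM each as 5X stock) were preincubated with pin-transferred compound for 2 h at 37 °C in the dark, then glutathione donor and nickel acceptor beads were added for 1 h before AlphaScreen reading.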
Six1-Eya2 blk: qHTS Assay for Inhibitors of the Six1/Eya2 Interaction | Homeobox protein SIX1 (Homo sapiens) + Protein phosphatase EYA2 (Homo sapiens), … | AlphaScreen GST-Six1/His-Eya2 binding, biochemical; stronger effect = lower value; control for the full effect not named in the record | activity change, % (test concentration not listed) | 360,000 tested, 0.56% active; in the data active = activity change below about -65%; inconclusive = about -30% to -65%; inactive = above about -30%; also: % is scaled to controls: 0 for no effect and ±100 for the full control effect; compound concentration not given in the record
Target sequence (O00167 whole entry, looked up): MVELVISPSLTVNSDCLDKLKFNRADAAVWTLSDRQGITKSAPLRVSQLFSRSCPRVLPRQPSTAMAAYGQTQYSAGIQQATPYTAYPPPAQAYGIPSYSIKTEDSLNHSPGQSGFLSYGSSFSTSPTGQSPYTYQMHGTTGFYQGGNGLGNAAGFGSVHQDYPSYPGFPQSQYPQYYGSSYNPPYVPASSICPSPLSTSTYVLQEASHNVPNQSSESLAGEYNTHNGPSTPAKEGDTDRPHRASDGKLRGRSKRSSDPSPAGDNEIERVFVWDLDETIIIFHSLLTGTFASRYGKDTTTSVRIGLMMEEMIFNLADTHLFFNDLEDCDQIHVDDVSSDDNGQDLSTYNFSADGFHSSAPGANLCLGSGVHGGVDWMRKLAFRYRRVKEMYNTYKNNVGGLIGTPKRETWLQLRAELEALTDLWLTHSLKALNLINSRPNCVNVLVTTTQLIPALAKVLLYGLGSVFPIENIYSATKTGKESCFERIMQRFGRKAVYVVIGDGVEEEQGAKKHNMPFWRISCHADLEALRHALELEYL
Target sequence (Q15475 whole entry, looked up): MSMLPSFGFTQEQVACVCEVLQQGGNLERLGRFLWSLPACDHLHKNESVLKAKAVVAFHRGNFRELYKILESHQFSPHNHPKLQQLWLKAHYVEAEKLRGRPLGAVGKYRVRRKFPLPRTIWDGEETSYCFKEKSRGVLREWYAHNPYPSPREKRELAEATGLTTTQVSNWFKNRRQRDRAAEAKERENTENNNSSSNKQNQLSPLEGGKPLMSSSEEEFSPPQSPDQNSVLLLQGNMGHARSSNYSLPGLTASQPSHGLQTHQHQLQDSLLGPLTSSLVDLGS
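AlphaScreen with GST-Six1 and His-Eya2 (5X mix: 250 nM and 500 nM), glutathione donor and nickel acceptor beads; buffer 50 mM Tris pH 8.0, 300 mM NaCl, 1 mM TCEP; 1 h at 37 C in the dark.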
PINK1 expr mod: A Quantitative High throughput Screen to Identify Chemical Modulators of PINK1 Expression; PINK1 immunofluorescence, high-content cytometry, 24 h; Potency, µM (highest dose often 76.6 µM), inactives show top-dose activation (PINK1 increase), most hits filed as activators; 410,000 tested, 0.2% active; AID 624263, 2012; active = well fitted activation curve with a large enough effect; inconclusive = small, poorly fitted or top-dose-only effect; inactive = flat fitted curve, though single readings scatter; cell line not stated here;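 also: potency is read from the fitted curve at half-maximal effect; % of control where 0% means no effect; nearly all actives have a fitted effect of over 65% in size; a mitochondrial uncoupler was the plate control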
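Decision-based qHTS: stable cells, 24 h exposure to five compound concentrations, CCCP as control. Fixed cells stained for PINK1 plus nuclear, mitochondrial and cell markers, cytometer read.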
TRPV1 potentiator: HTS Assay for Compounds that Act as Potentiators of the Vanilloid Receptor 1 | Transient receptor potential cation channel subfamily V member 1 (Homo sapiens), Q8NER1 | TRPV1-expressing cells, Fluo-8 calcium influx, capsaicin EC20 potentiation; host cell line not named in the record; control for the full effect not named in the record | potentiation, % at 8.33 µM | 320,000 tested, 0.02% active | AID 540277, 2011; active means potentiation above 80%; inconclusive means 30% to 80%; inactive means below 30%; also: 0% is about no effect
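Cells expressing TRPV1 were dye-loaded with Fluo-8 and read kinetically: 10 s baseline, 3 min after compound (agonist portion), then 2 min after EC20 capsaicin (allosteric enhancer portion). Calcium-bound dye fluorescence at 480/520 nm.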
D2 agonist: Beta-Arrestin HTS for Positive Allosteric Modulators of the Human D2 Dopamine Receptor: Agonists | DiscoveRx PathHunter D2 beta-arrestin, luminescence, 90 min; 100% = 57 uM dopamine signal | activation, % (no concentration beside the values) | 360,000 tested, 0.084% active; in the data active = activation above about 40%; inconclusive = about 15% to 40%; inactive = below about 15%; also: compound concentration not given in the record; the text of the record calls up to 30% inactive
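DiscoveRx PathHunter D2 beta-arrestin cells (2,100/well) attached overnight, then compound-stimulated 90 min at 37 C in HBSS/10 mM HEPES/0.1% Tween-20 buffer; beta-galactosidase complementation read by luminescence after 1 h at ambient temperature. Dopamine 57 uM final (EC100) as control.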
Sfp PPTase inh: qHTS Assay for Inhibitors of Bacillus subtilis Sfp phosphopantetheinyl transferase (PPTase); 4'-phosphopantetheinyl transferase ffp (Bacillus subtilis), Q9F4F7; Biochemical Sfp PPTase activity, qHTS; Potency, µM, without a hit: max response, negative = inhibition, usual class: inhibitors; 310,000 tested, 3.5% active; AID 1490, 2009; active = well fitted inhibition curve with a large enough effect; inconclusive = small, poorly fitted or top-dose-only effect, or another doubt; inactive = no such curve, though single readings can be large or run the other way;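 also: the enzyme is Sfp with the accession as filed and its product quenches rhodamine fluorescence; potency is read from the fitted curve at half-maximal effect; 0% = enzyme reaction without inhibitor and -100% = no enzyme wells; top concentration of the series not given in the record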
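Reaction rates are the 30-min fluorescence difference (ex 525, em 598 nm) in wells containing 15 nM Sfp, 5 uM rhodamine-CoA and 12.5 uM BHQ-2-YbbR at pH 7.6 with 10 mM MgCl2.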
D2 PAM: Beta-Arrestin HTS for Positive Allosteric Modulators of the Human D2 Dopamine Receptor: Potentiators | potentiation, % (concentration not given with the values) | DiscoveRx D2 beta-arrestin cells, luminescence, 90 min; 100% = 57 uM dopamine signal | D(2) dopamine receptor (Homo sapiens), P14416 | 360,000 tested, 0.23% active; active = potentiation of 50% or more; inconclusive = 30% to 50%; inactive = 30% or less;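 also: compound concentration not given in the record; tested on top of an EC20 dose of dopamine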
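D2 cells co-treated with compound plus 50 nM dopamine (EC20) for 90 min at 37 deg C to detect potentiation. Beta-arrestin recruitment was read as enzyme-fragment luminescence after 1 h at ambient temperature. Full response was set by 57 uM dopamine.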
* hit, by the source's call; ? = inconclusive; / = no result given; [ ] = another dose, or the depositor's remark.

SMILES | CtBP-E1A inh | Six1-Eya2 blk | PINK1 expr mod | TRPV1 potentiator | D2 agonist | Sfp PPTase inh | D2 PAM
CCOc1ccccc1N1CCN(CC(=O)NCCc2ccc(S(N)(=O)=O)cc2)CC1 | 6.0 | -0.1 | -1.1% | 6.7 | 1.6 | 10.6% | -10.0
CC(C)c1ccc(NC(=O)Nc2nc(C(C)N)cs2)cc1 (stereo not given) | -25.9 | -20.1 | 0.3% | / | 0.5 | / | -0.3
Cc1ccc(NC(=S)N2CCN(c3nccc(C(F)(F)F)n3)CC2)c(C)c1 | 3.1 | -19.7 | 16.3% | -0.9 | -4.1 | 27.2% | -12.3
CCCCCCNC(=O)O[C@@]12CN(S(=O)(=O)c3ccc(C)cc3)C[C@]1(O)Cn1c(=O)n(CCCCCC)c(=O)n1C2 | 0.0 | -0.6 | ? | / | -8.4 | / | -1.9
Cc1ccc(C(=O)NCC(=O)OCc2csc(-c3ccccc3)n2)cc1 | 2.0 | 5.2 | 1.0% | ? | -4.6 | 10.1% | -5.1
NC1=NC[C@H](c2ccccc2)N1CCCCC1CCCCC1 | -2.5 | 0.4 | -1.1% | 25.6 | -1.3 | -3.0% | -17.0
Cn1nccc1C(=O)N1CCN(C23CC4CC(CC(C4)C2)C3)CC1 | 2.6 | 2.7 | 0.4% | -2.9 | -3.0 | 12.1% | -7.2
CCOC(=O)C(N)CSC1CC(=O)N(c2ccc(C(=O)OC)cc2)C1=O (stereo not given) | -6.0 | -14.5 | -0.2% | 0.1 | -3.5 | -10.9% | 8.7
CCC(C)NC(=O)NC(=O)N(C1CCCCC1)S(C)(=O)=O (stereo not given) | 6.3 | 4.2 | 2.6% | -4.7 | -1.1 | 9.7% | -8.6
COc1ccc(OC)c(C=NNC(=O)c2ccccc2NS(=O)(=O)c2cccs2)c1 | 2.5 | -1.9 | 4.5% | / | -2.7 | / | -1.1
COc1cc2ccccc2cc1C(=O)N1CCc2ccccc21 | -0.3 | -8.3 | 4.1% | -4.5 | -2.5 | / | -13.3
CC1(C(=O)Nc2cccc3c2CCCC3)CCN1C(=O)CCc1ccc(Cl)cc1Cl (stereo not given) | 3.1 | -1.6 | 8.7% | / | -3.5 | / | -11.3
COc1ccc(-c2cc(C(=O)N3CCOCC3)no2)cc1 | 1.6 | 5.4 | -0.1% | -1.1 | -3.2 | 8.4% | 1.1
COc1cc(C=NNC(=O)c2ccccc2NS(=O)(=O)c2cccs2)cc(OC)c1O | -4.4 | -8.0 | 3.3% | / | 0.3 | / | -8.7
Cc1ccnc(NS(=O)(=O)c2ccc(NC(=O)CCOc3ccccc3)cc2)n1 | 4.4 | 0.6 | -2.0% | ? | -2.7 | 14.6% | -17.3
CC1(C)C(C#N)=C(N)OC2=C1C(=O)CCC2 | 11.3 | 3.7 | -4.1%[38.3 µM] | 29.7 | -2.1 | -11.4% | -16.3
Cc1nnc2ccc(-c3cccc(NC(=O)c4ccc(Cl)nc4)c3)nn12 | -28.5 | 0.0 | 7.3% | -2.6 | -4.8 | 22.4% | -10.6
C#CCOCCOCCOCCNc1nc(N2CCN(C(=O)[C@H](Cc3cc4ccccc4[nH]3)n3cc([C@@H](N)C(C)CC)nn3)CC2)nc(N2CCN(C(=O)[C@H](CCCCN)n3cc([C@@H](N)CC(C)C)nn3)CC2)n1 (stereo not given in full) | / | 0.0 | 1.1% | -14.0 | -1.7 | -3.8% | -11.2
COc1cccc(-c2cc(NC=O)c3ncc(-c4cccc(C(=O)N(C)C)c4)n3c2)c1 | -24.7 | ? | 4.6% | / | 3.5 | / | -3.6
COCCCn1c(C)nnc1SCC(=O)NNC(=O)COc1ccc(Cl)cc1 | 11.1 | 3.9 | -2.6% | 19.2 | -2.2 | 23.9% | -5.6
O=C(OCc1cc(Cl)ccc1OC(F)F)c1cncc(Br)c1 | -1.2 | 22.5 | -0.4% | -2.6 | -2.0 | -15.0% | -12.3
Cc1cc(=O)n2[nH]c(-c3ccc(F)cc3)cc2n1 | -1.9 | -1.1 | -0.2% | -2.3 | -1.9 | 12.0% | -5.5
Cc1cc(C)nc(Nc2n[nH]c(COc3ccc(Cl)cc3)n2)n1 | 3.3 | 7.4 | 9.1% | 3.3 | -4.1 | 16.0% | -4.8
O=C(CCS(=O)(=O)c1ccccc1)Nc1nc(-c2ccccn2)cs1 | -79.8* | -11.2 | 1.3% | / | -4.7 | / | -11.5
CCOC(=O)CN(Cc1sccc1C)C(=O)Nc1cccc(OC)c1 | 9.6 | -4.0 | 0.3% | 2.8 | -2.0 | -2.9% | -15.0
N#Cc1cccc(NC(=O)Cn2cnc(S(=O)(=O)N3CCCCC3)c2)c1 | -7.6 | 6.6 | -0.2% | 2.1 | -4.0 | 28.9% | -4.6
CCc1nc2c(OCc3ccccc3)cccn2c1N(C)C(=O)COc1ccccc1 | -4.5 | -9.5 | 3.5% | / | -3.8 | / | -1.6
CC(=O)c1ccc(S(=O)(=O)NCCC(=O)NC2CCN(Cc3ccccc3)CC2)cc1 | -18.6 | -8.5 | -1.7% | / | -1.7 | / | -9.6
O=C(COc1ccccc1Cl)NNC(=O)C1CCCO1 (stereo not given) | 0.5 | 14.6 | 2.7% | 7.7 | 3.9 | 3.9% | -5.7
Cc1[nH]c2ccc(C(=O)NCCCN3CCCCCC3)cc2c1C | -20.7 | -12.9 | -0.7% | 1.9 | 1.6 | -12.9% | -38.5
Cc1c(/C=C/C(=O)c2ccccc2)cnn1C | -0.1 | 6.4 | 3.3% | -4.7 | 2.7 | 12.1% | -2.0
C(=NOCc1ccccc1)c1ccncc1 | 6.1 | 1.8 | -0.1% | / | 3.8 | / | -6.8
Cc1ccc(OCC(O)CNS(=O)(=O)c2ccccc2C(=O)O)cc1 (stereo not given) | 3.9 | 6.8 | -2.5% | 6.2 | -1.4 | -0.7% | -16.0
CCOc1ccccc1OCCCC(=O)N1CCN(S(=O)(=O)c2ccc(Cl)cc2)CC1 | -1.5 | -0.9 | 4.7% | 4.1 | 0.5 | / | -0.2
Cc1cc(C)n(C(=O)N(c2ccccc2)c2ccccc2)n1 | -3.4 | 8.6 | 1.1% | ? | -1.0 | 3.7% | -8.2
O=P(c1ccccc1)(c1ccccc1)c1ccc(O)cc1 | 0.4 | 3.2 | 1.3% | -19.6 | 6.8 | 19.5% | 0.9
COc1ccc(/C=N/NC(=O)c2ccoc2C)cc1OC | -5.2 | 6.7 | 3.0% | -4.2 | -3.8 | 2.8% | -8.2
COc1cccc(/C=C2\N=C(c3c(-c4ccccc4)noc3C)OC2=O)c1 | -6.4 | -0.1 | / | 23.7 | -3.4 | 16.4% | -12.2
COc1ccc2[nH]cc(CCn3ccc(=O)c(C)c3C)c2c1 | 1.3 | 0.2 | -0.7% | -0.3 | -3.7 | 20.8% | -3.1
Cc1ccc(NC(=O)CN(C)c2ccc(S(=O)(=O)N3CCCC3)cn2)cc1 | 0.7 | 0.0 | 0.4% | -6.4 | 1.4 | 8.8% | -6.1

Part of the list above, showing only CtBP-E1A inh, Sfp PPTase inh and D2 PAM.
compound,CtBP-E1A inh,Sfp PPTase inh,D2 PAM
Cc1ccc(OCC(O)CNS(=O)(=O)c2ccccc2C(=O)O)cc1 (stereo not given),3.9,-0.7%,-16.0
CCOc1ccccc1OCCCC(=O)N1CCN(S(=O)(=O)c2ccc(Cl)cc2)CC1,-1.5,/,-0.2
Cc1cc(C)n(C(=O)N(c2ccccc2)c2ccccc2)n1,-3.4,3.7%,-8.2
O=P(c1ccccc1)(c1ccccc1)c1ccc(O)cc1,0.4,19.5%,0.9
COc1ccc(/C=N/NC(=O)c2ccoc2C)cc1OC,-5.2,2.8%,-8.2
COc1cccc(/C=C2\N=C(c3c(-c4ccccc4)noc3C)OC2=O)c1,-6.4,16.4%,-12.2

Next part:
SMILES | CtBP-E1A inh | Six1-Eya2 blk | PINK1 expr mod | TRPV1 potentiator | D2 agonist | Sfp PPTase inh | D2 PAM
Cc1ccc(Cl)cc1NC(=O)C1CC(=O)Nc2ncnn21 (stereo not given) | 2.7 | 0.3 | 1.8% | 2.8 | -2.1 | 6.9% | -10.8
COc1ccc(OC)c(C(=O)COC(=O)COc2ccccc2)c1 | 10.1 | 35.0 | 1.5% | / | -2.3 | / | -2.1
Cc1cccc(NC(=O)N2CCCCCC2)c1C | -3.6 | 2.8 | -1.2% | 2.6 | -4.7 | 3.7% | -15.1
CCOC(=O)c1nnn(-c2nonc2N)c1CNc1ccccc1 | -0.5 | -3.3 | -3.4% | -14.6 | -3.4 | 11.1% | -4.3
Cn1c(=O)c2sccc2n2c(CCCC(=O)N3CCCCC3)nnc12 | / | -11.1 | -0.6% | -3.5 | -1.7 | 7.4% | -5.8
O=C(Cc1ccccc1)NCCc1ccc(Cl)cc1Cl | 7.2 | 10.1 | 1.3% | 7.9 | -1.6 | 1.7% | -4.0
CCSc1nnc(-c2cc(Br)ccc2N=Cc2c(C)[nH]n(-c3ccccc3)c2=O)c(=O)[nH]1 | -0.5 | -9.8 | 4.0% | 26.3 | -3.0 | -3.0% | 14.7
COc1ccccc1OCC(=O)N/N=C1\CCc2ccccc21 | 0.0 | 22.0 | -0.2% | 4.8 | -2.2 | 12.6% | -32.9

Two neighbouring entries from above, quoted:
SMILES | CtBP-E1A inh | Six1-Eya2 blk | PINK1 expr mod | TRPV1 potentiator | D2 agonist | Sfp PPTase inh | D2 PAM
Cc1ccc(Cl)cc1NC(=O)C1CC(=O)Nc2ncnn21 (stereo not given) | 2.7 | 0.3 | 1.8% | 2.8 | -2.1 | 6.9% | -10.8
COc1ccc(OC)c(C(=O)COC(=O)COc2ccccc2)c1 | 10.1 | 35.0 | 1.5% | / | -2.3 | / | -2.1
